2A firefly: lowers the firefly signal of an FMDV 2A StopGo reporter; HEK cells with a luciferase reporter of 2A StopGo recoding; Potency, µM (doses to about 57.5 µM), for inactives: at the top dose signal change, negative = less light; hit rate 0.23% among 120,000; active = well fitted falling curve with a large enough effect; inconclusive = small, poorly fitted or top-dose-only effect; inactive = no such curve, though single readings can be large or run the other way; further: nearly all actives have a fitted effect of over 60% in size; overnight with compound
2A Renilla: FMDV 2A StopGo reporter, Renilla signal. HEK cells with a luciferase reporter of 2A StopGo recoding. Potency, µM (series often up to 57.5 µM), for inactives: top-dose signal change, negative = less light. hit rate 0.32% among 120,000; active means well fitted falling curve with a large enough effect; inconclusive means small, poorly fitted or top-dose-only effect; inactive means no such curve, though single readings can be large or run the other way; further: nearly all actives have a fitted effect of over 55% in size; overnight with compound
The depositor's hits bear a star; ? = inconclusive; [ ] = another dose, or the depositor's remark. On the % scale 0 is the no-effect control and ±100 the full control effect; potency means the concentration at half of the fitted maximal effect. The list is partial; count on the stated rates, not on these rows.

Structure	2A firefly	2A Renilla
CN(/C=C/C(=O)/C=C/N(C)c1ccccc1)c1ccccc1	42%[activator]	-1%
O=C1CC(c2cccs2)Cc2c1cnn2-c1nc2ccccc2[nH]1 (centres undefined)	7%	4%
O=C(Cn1nc(Cc2cccnc2)c2ccccc2c1=O)Nc1ccc(F)c(Cl)c1	-4%	17%
Cc1ccc(C2C(C#N)=C(N)OC3=C2C(=O)CC(C)(C)C3)o1 (centres undefined)	5%	-8%[1.06 µM]
CC(OC(=O)c1cc(C2CC2)nn1-c1ccccc1)C(N)=O (centres undefined)	15%	-1%
CO/N=C/c1ccccc1OCc1ccc(C(=O)OC)cc1	21%	15%
CCCN(C(=O)Cn1nc(Cc2ccncc2)c2ccccc2c1=O)c1ccc(F)cc1	-5%	1%
CC(C)OCCCN1C(=O)c2[nH]nc(-c3ccccc3O)c2C1c1ccc(OCc2ccccc2)cc1 (centres undefined)	?	?
COc1ccc(CCNC(=O)c2cc(Sc3cccc(Cl)c3)nc3ccccc23)cc1OC	-39%	-23%
Fc1cccc(/C=C/c2nc3ccccc3o2)c1	124%[activator]	1%
O=C(NC1CCCC1)c1ccc2c(=O)n(Cc3ccccc3)c(SCc3ccccc3)nc2c1	-19%	-17%
CCOC(=O)c1[nH]c(C)c(C(=O)OCC#N)c1C	64%[activator]	-7%[1.06 µM]
CCCCN(CC)CCCNC(=O)c1cc2c(=O)[nH]c3ccccc3c2s1	-12%	-12%
O=C(CC(c1ccccc1)S(=O)(=O)c1ccccc1)c1ccc(F)cc1 (centres undefined)	17%	7%
COc1ccc(-c2nc(Cn3nnc(C(=O)Nc4ccc5c(c4)OCCO5)c3N)c(C)o2)cc1	35%	9%
CCCOc1ccc(-c2nc(C#N)c(NCc3ccco3)o2)cc1	53%[activator]	60%[activator]
CCOc1ccc(OCC)c(NS(=O)(=O)c2ccc3[nH]c(=O)ccc3c2)c1	5%	28%
CN(Cc1cccc(Cl)c1Cl)C(=O)CCNC(=O)Nc1ccccc1	-9%	62%[activator]
O=C1CCSC2(C(=O)N(Cc3ccc(F)cc3)c3ccccc32)N1c1ccccc1 (centres undefined)	-8%	14%
CC(C)c1cccc(N/C=C/C(=O)c2ccc(Br)cc2)c1	103%[activator]	7%
COc1cc(/C=C(/C#N)C(=O)c2c(Cl)cccc2Cl)cc(OC)c1OC	?	?
C=Cc1ccc(Cn2c(=O)n(-c3ccc(C)cc3)c(=O)c3c2c2cc(OC)ccc2n3C)cc1	-12%	-6%
O=C(NCc1ccccc1Cl)c1ccc(CS(=O)(=O)c2ccc(Br)cc2)o1	?	?
COc1ccc(-c2cc3nccc(-c4cc(Cl)c(C)cc4O)n3n2)cc1	-3%	-9%
CC(C)(CO)NC(=O)C12CC3CCC(CC(C3)C1)C2	16%	18%
Cn1c(CNC(=O)c2ccc3c(c2)OCO3)nnc1SCC(=O)c1ccccc1	13%	4%
CSc1ccccc1NC(=O)C1=CC(c2ccc3c(c2)OCO3)=NS(=O)(=O)N1C	-2%	20%
COCCNC(=O)Nc1cc(C(=O)NCc2ccc(C(C)C)cc2)ccc1N1CCCC1	6%	9%
N#Cc1ccc(/C=C/C(=O)c2ccc3c(c2)CCO3)cc1	0%	7%
Cn1ncc2c(Nc3cc(C(F)(F)F)ccc3Cl)ncnc21	-12%	-18%
CCCCCc1nc2ccccc2c(=O)n1-c1ccc(C)cc1	-12%	-9%
Cc1ccc(-c2ccc(=O)n(CC(=O)Nc3c(C)cccc3C)n2)cc1S(=O)(=O)N1CCOCC1	2%	8%
O=C(CSc1ccccn1)c1ccc(C2CC2(Cl)Cl)cc1 (centres undefined)	0%	15%
CCN(CC)S(=O)(=O)c1ccc(CNC(=O)c2ccccc2OCc2cn3ccccc3n2)cc1	-14%	6%
NS(=O)(=O)c1ccc(N/N=C/c2ccc(Cl)c(Cl)c2)c([N+](=O)[O-])c1	7%	6%
COc1cc(CNC(=O)c2ccc3nc(CCc4ccccc4)oc3c2)cc(OC)c1OC	-24%	15%
O=C(O)C(Cc1c[nH]c2ccccc12)NCc1ccccc1 (centres undefined)	-10%	-8%
Cc1ccc(S(=O)(=O)N2CCN(C(=O)CN(Cc3ccco3)Cc3ccco3)CC2)cc1C	-16%	-1%
COc1ccc(-c2cnn3c2NC(=O)CC3C(=O)Nc2ccc(F)c(Cl)c2)cc1OC (centres undefined)	-1%	-1%
Cc1cc(NC(=O)N(Cc2ccco2)C2CC2)n(C)n1	-4%	-7%
COc1ccc2cnn(CC(=O)Nc3ccc(F)cc3)c(=O)c2c1OC	6%	-3%
CCc1nnc2c(Nc3ccc(Br)c(C)c3)nc3ccccc3n12	-15%	-8%
Cc1ccccc1CS(=O)(=O)c1ncc(Cl)c(C(=O)Nc2nnc(C(C)C)s2)n1	?	?
Cc1ccccc1C(=O)NCCc1c[nH]c2ccccc12	162%[activator]	9%
CC(C)CCn1nc(C(=O)OC/C(O)=C(\C#N)c2nc3ccccc3[nH]2)c2ccccc2c1=O	-8%	-5%
COc1ccc(N2CCN(C(=O)CCn3cnc4onc(-c5ccc(F)cc5)c4c3=O)CC2)cc1	0%	19%
CC(=O)c1ccc(NC2OCC(O)C(O)C2O)cc1 (centres undefined)	-5%	5%
COc1ccc(C)cc1NC(=O)c1ccc(-n2cccn2)cc1	34%	11%
CCN(CC)CCNC(=O)c1nc2c3c4c(sc3nc(C)n2n1)CCC4	-9%	-16%
CCC1(c2ccc(N)cc2)CCC(=O)NC1=O (centres undefined)	-8%	-1%

Some of the entries so far, with values under each structure.
Every second line gives: 2A firefly	2A Renilla
CC(C)CCn1nc(C(=O)OC/C(O)=C(\C#N)c2nc3ccccc3[nH]2)c2ccccc2c1=O
 : -8%	-5%
COc1ccc(N2CCN(C(=O)CCn3cnc4onc(-c5ccc(F)cc5)c4c3=O)CC2)cc1
 : 0%	19%

Pulled by compound from the list above:
Structure	2A firefly	2A Renilla
Cc1ccc(S(=O)(=O)N2CCN(C(=O)CN(Cc3ccco3)Cc3ccco3)CC2)cc1C	-16%	-1%
CCc1nnc2c(Nc3ccc(Br)c(C)c3)nc3ccccc3n12	-15%	-8%
Cn1ncc2c(Nc3cc(C(F)(F)F)ccc3Cl)ncnc21	-12%	-18%
CCC1(c2ccc(N)cc2)CCC(=O)NC1=O (centres undefined)	-8%	-1%
CC(C)CCn1nc(C(=O)OC/C(O)=C(\C#N)c2nc3ccccc3[nH]2)c2ccccc2c1=O	-8%	-5%

More results follow.
Structure	2A firefly	2A Renilla
Cc1ccc(NC(=O)CSc2nc3ccccc3nc2Cc2ccccc2)c(Cl)c1	0%	-17%
COc1cc(C2CC(=O)N(CC(=O)Nc3ccccc3F)c3ccccc3S2)cc(OC)c1OC (centres undefined)	?	-15%
Cc1ccc2sc(N3CCN(C(=O)CCS(=O)(=O)c4ccc(Cl)cc4)CC3)nc2c1C	-10%	-12%
Cc1ccc(C(=O)NC(Nc2ccc(C)c(C)c2)C(Cl)(Cl)Cl)cc1 (centres undefined)	?	?
O=C(/C=C/c1ccc(-c2ccc(Cl)cc2Cl)o1)c1ccc(Br)cc1	14%	-10%
Cc1ccc(Nc2cc(C(=O)N3CCOCC3)c3ccccc3n2)cc1C	46%[activator]	38%[activator]
Cc1cc(C)c(NC(=O)Cn2c(=O)oc3cc(S(=O)(=O)N4CCCCCC4)ccc32)c(C)c1	-16%	-30%
Cc1ccc(C(=O)c2cn(CC(=O)NCc3ccccc3)c3nc(C)ccc3c2=O)cc1	-6%	-6%
NC(=O)Cn1cnc2c(oc3nc(C4CCCCC4)c4c(c32)CCC4)c1=O	1%	-5%
Cc1cc(C(C)(C)C)c(O)c(C)c1CC1=NCCN1	-9%[11.5 µM]	-12%
COc1cccc(CNC(=O)c2ccc3c(c2)sc2nc(-c4cccc(OC)c4)cn23)c1	50%[activator]	-6%
COc1ccc(N2CCN(C(=O)CCn3nc(C)c(S(=O)(=O)N4CCCC4)c3C)CC2)cc1	?	?
COc1ccc(CCNC(=O)c2cc3c(=O)n4cccc(C)c4nc3n2C)cc1	-6%	0%
CC(=O)c1cccc(NC(=O)C(C)N(C)Cc2ccccc2N2CCCCC2)c1 (centres undefined)	-26%	?
CC1CCC(NC(=O)C2(C)Cc3ccccc3C(=O)N2Cc2ccccc2Cl)CC1 (centres undefined)	22%	-13%
Cc1ccccc1CN1C(=O)c2ccccc2S(=O)c2ccc(C(=O)NC3CCC(C)CC3)cc21 (centres undefined)	-9%	-3%
CCN(CC)C(=O)c1ccc(N(Cc2ccccc2)S(C)(=O)=O)cc1	7%	19%
Clc1ccccc1N/N=C/c1cccc(/C=N/Nc2ccccc2Cl)c1	8%	12%
O=C(c1ccc2c(c1)N(Cc1cccc(Cl)c1)C(=O)c1ccccc1S2(=O)=O)N1CCc2ccccc21	-18%	41%[activator]
CN1CCN(C(=O)c2cn(C)c3ccccc23)C(c2ccccc2)C1 (centres undefined)	19%	6%
O=C(NCCCN1CCCCC1)c1sc2ncccc2c1-n1cccc1	-20%	-8%
CCOC(=O)C(C)Sc1nc2c(c(=O)[nH]c(=O)n2C)n1Cc1cccc(Br)c1 (centres undefined)	-6%	-6%
Clc1ccc(NC2(c3nnnn3-c3ccccc3)CCCCC2)cc1	1%	149%[activator]
Cc1ccc(NC(=O)c2cnc3c(c2)c(=O)[nH]c(=O)n3C2CC2)c2cccnc12	33%[activator]	47%[activator]
Cc1ccc(-c2nc3ccccc3n2CCNC(=O)Nc2cccc(F)c2)cc1	20%	-5%
COC(=O)c1ccc2nc(C)cc(Nc3ccc(O)cc3)c2c1	8%	-16%
CN(C)C(CNc1oc(-c2ccc(Cl)cc2)nc1C#N)c1cccs1 (centres undefined)	17%	-11%
CC(C)CN(CCCNC(=O)CN1N=C(c2ccc(Cl)cc2)CCC1=O)CC(C)C	0%	0%
COc1ccc(NC(=O)CC2SCCNC2=O)c(OC)c1 (centres undefined)	64%[activator]	-3%
O=C(CN1C(=O)COc2ccc(S(=O)(=O)NC3CCCC3)cc21)Nc1ccc(Cl)cc1F	-4%	248%[activator]
Cc1c(F)cccc1NC(=O)C1CCCN1S(=O)(=O)c1ccc(F)cc1 (centres undefined)	-10%	10%
CCC(C)NC(=O)CSc1nc2c(sc3ccccc32)c(=O)n1CCc1ccccc1 (centres undefined)	-22%	-15%
Cc1ccc(C(=O)Nc2ccc(OCc3cc(=O)n4c(C)csc4n3)cc2)cc1	-10%	-19%
COCCCNC(=O)Cn1c(=O)n(-c2ccc(Cl)cc2)c(=O)c2c3c(sc21)CCCCC3	-14%	-3%
O=C1Cc2cc(S(=O)(=O)N3CCN(C(=O)Nc4ccccc4F)CC3)ccc2N1	-4%	5%
CCc1ccc(-c2noc(CSc3nc4ccccc4c(=O)n3CCCO)n2)cc1	8%	-9%
CC(C)(C)NC(=O)C1CCN(c2nc3ccccc3nc2C(F)(F)F)CC1	-3%	-11%
CC(=O)Nc1ccc(S(=O)(=O)Nc2nc3ccccc3nc2Nc2cccc(C)c2)cc1	-9%	-11%
CCN(Cc1nc(-c2cccc(C)c2)no1)S(=O)(=O)c1ccc(C)cc1	-5%	-5%
CCOC(=O)C1=C(C)N(C)C(=O)NC1c1cccc(Cl)c1Cl (centres undefined)	-11%	-10%
CCCCN(CC)C(=O)c1ccc2nc(C)c(C)nc2c1	38%[activator]	-3%
CCOC(=O)c1ccccc1NC(=O)CSc1ncc(CO)n1Cc1ccc(C)cc1	-23%	-7%
CCn1cnc2c1c(=O)n(CC(=O)c1cc(C)n(C(C)COC)c1C)c(=O)n2Cc1ccccc1 (centres undefined)	6%	20%
CCCCCCCCOC(=O)C1C(c2ccccc2)C(C(=O)O)C1c1ccccc1 (centres undefined)	4%	52%[activator]
CC(C)c1ccc(-c2nnn(Cc3cc(=O)n4ccsc4n3)n2)cc1	?	?
O=S(=O)(c1ccccc1)n1nc(NCc2ccccc2)nc1NCc1ccccc1	-11%	12%
CC(C(=O)N(C)c1ccccc1)S(=O)(=O)Cc1ccccc1F (centres undefined)	-7%	-3%
O=C(/C=C/c1cc(Cl)cc(Cl)c1O)c1ccccc1	62%[activator]	-20%
Cc1ccc2c(COC(=O)c3cc(S(=O)(=O)N(C)C)ccc3NCCO)cc(=O)oc2c1	10%	24%
COc1cc(OC)c(OC)cc1/C=C(/C#N)C(=O)c1c(Cl)cccc1Cl	?	?

More results:
Structure	2A firefly	2A Renilla
CO[C@]1(NC(=O)CSC(F)F)C(=O)N2C(C(=O)O)=C(CSc3nnnn3CCO)CO[C@H]21	-7%	-12%
Cc1cccc(N2CCN(C(=O)c3noc4c3CCCCC4)CC2)c1C	-22%	-6%
CC1(C)CC(NC(=S)Nc2ccc(F)cc2)CC(C)(C)N1	-19%	-19%
Cc1[nH]c2ccccc2c1C1(O)C(=O)N(Cc2ccccc2)c2ccc(Br)cc21 (centres undefined)	-13%	7%
O=C(COC(=O)c1cc(=O)c2ccccc2o1)Nc1cccc(Br)c1	133%[activator]	-6%
CCOCCCNC(=O)CSCCCC(=O)Nc1c(C)cc(C)cc1C	0%	-18%

Full records, quoted from the list. Values in the order: 2A firefly, 2A Renilla
O=C(COC(=O)c1cc(=O)c2ccccc2o1)Nc1cccc(Br)c1 across the screens: 133%[activator], -6%
CCOCCCNC(=O)CSCCCC(=O)Nc1c(C)cc(C)cc1C across the screens: 0%, -18%

Screening results (PubChem)
